Screening data (PubChem)
KCNQ2 inh = KCNQ2 potassium channel inhibitors, primary screen, cell-based, CHO-K1, FluxOR thallium flux, B-score (AID 2156) | O88943 | 20 min; hits give low values; only compounds with negative scores are shown here; some inactives read as strong as hits | B-score at 10 µM | 1.1% of 310,000 active;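 active = fluorescence ratio B-score at most minus 3 library SDs, with starting brightness B-score within 2 library SDs, cut at about -5.5 in these data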
Target sequence (O88943 whole entry, looked up): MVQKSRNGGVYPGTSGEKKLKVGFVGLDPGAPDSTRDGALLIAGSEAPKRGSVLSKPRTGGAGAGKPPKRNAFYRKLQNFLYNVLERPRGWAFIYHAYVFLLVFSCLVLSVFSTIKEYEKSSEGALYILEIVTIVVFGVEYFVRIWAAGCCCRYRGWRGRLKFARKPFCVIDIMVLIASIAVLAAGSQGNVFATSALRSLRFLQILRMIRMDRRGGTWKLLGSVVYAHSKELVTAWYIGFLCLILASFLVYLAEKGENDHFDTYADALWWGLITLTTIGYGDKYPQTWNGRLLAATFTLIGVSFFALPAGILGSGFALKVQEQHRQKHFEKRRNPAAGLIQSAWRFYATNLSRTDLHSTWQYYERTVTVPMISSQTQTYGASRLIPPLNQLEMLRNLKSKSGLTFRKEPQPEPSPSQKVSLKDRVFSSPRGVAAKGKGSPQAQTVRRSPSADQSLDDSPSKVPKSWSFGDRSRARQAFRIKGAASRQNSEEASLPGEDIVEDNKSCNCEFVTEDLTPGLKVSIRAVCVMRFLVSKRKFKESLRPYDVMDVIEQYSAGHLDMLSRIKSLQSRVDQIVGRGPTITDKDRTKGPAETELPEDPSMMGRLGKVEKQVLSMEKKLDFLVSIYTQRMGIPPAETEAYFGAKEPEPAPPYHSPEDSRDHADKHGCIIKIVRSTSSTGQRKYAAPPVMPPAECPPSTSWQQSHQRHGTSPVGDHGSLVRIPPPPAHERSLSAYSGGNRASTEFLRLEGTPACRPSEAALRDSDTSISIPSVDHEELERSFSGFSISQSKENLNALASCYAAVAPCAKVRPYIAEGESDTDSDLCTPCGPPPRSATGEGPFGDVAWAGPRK
KCNQ2 inh baseline = second read-out of KCNQ2 inh, no call of its own (marks repeat the call); B-score; measured here: initial fluorescence intensity artifact check;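 brightness before thallium and not channel activity; 0 = typical well and far values either way flag optical interference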
Numbers without * were called inactive; i = inactive. A portion of the library; the hit share may differ from the screen's.

KCNQ2 inh | KCNQ2 inh baseline | SMILES
i | 0.01 | COc1cc(/C=C(/C#N)C(=O)NCc2ccccc2)cc(OC)c1OC
i | 0.34 | Cc1ccc(-n2cnc3scc(-c4cccs4)c3c2=O)cc1
i | -0.11 | Cc1cccc(C)c1Nc1nnc(SCC(=O)c2ccc3c(c2)NC(=O)CO3)s1
i | -0.58 | Cc1ccc(C(=O)Nc2cccnc2)cc1NC(=O)c1ccco1
i | 2.4 | C=CCN1C(=O)C2C(C(=O)NC)C3C=CC2(O3)C1C(=O)NCc1ccc(OC)cc1 (stereo unspecified)
i | -0.13 | Cc1ccc(N2CCN(C(=O)c3cccc([N+](=O)[O-])c3)CC2)cc1Cl
i | -0.26 | O=c1cnc2cc([N+](=O)[O-])ccc2[nH]1
i | 0.91 | CCOC(=O)CN(C)S(=O)(=O)c1ccc(-c2cc(C(=O)OC)sc2C(F)(F)F)cc1
i | -0.45 | COC(=O)NNC(=O)COc1ccc(Cl)cc1
i | 0.14 | Cc1ccc(NC2CC(=O)N(c3ccc(N4CCCCC4)cc3)C2=O)cc1 (stereo unspecified)
i | -0.31 | CC1=NNC(=O)C1Cc1ccc(F)cc1 (stereo unspecified)
i | 4.1 | Cc1cc(O)ccc1-c1cnc2ccccc2n1
i | -0.4 | CC[N+]1=C(C)C(C)(C)c2cc(C)ccc21
i | 0.04 | O=C(Nc1ccccc1)N1CCOCC1
i | 0.16 | COc1ccc(-c2cc(C(=O)Nc3ccc(F)cc3F)no2)cc1
i | -0.94 | CC(=O)c1ccc(N2CCN(C(=S)NCCCN(C)C)CC2)cc1
i | -0.03 | CCc1ccccc1S(=O)(=O)Cc1ccc(C(=O)N2CCN(c3ccccn3)CC2)o1
i | 0.33 | O=C(c1ccc(Cl)cc1)C1CCN(CC(=O)N2CCCCC2)CC1
i | 0.12 | Fc1cccc(CSc2nc3ccncc3[nH]2)c1
i | 0.89 | CCOC(=O)C(=CNc1ccccc1N1CCOCC1)C(=O)OCC
i | 0.01 | COc1ccc(N(C(=O)c2ccc(S(=O)(=O)N3CCCC3)cc2)C2C=CS(=O)(=O)C2)cc1 (stereo unspecified)
i | 1.7 | CCOC(=O)C1(CCc2ccccc2)CCN(Cc2ccn[nH]2)CC1
i | -0.06 | CCOC(=O)n1cc(-c2cnc(CNC(=O)C(C)(c3ccccc3)c3ccccc3)o2)c2ccccc21
i | -0.98 | Cc1ccc(C)c(NC(=O)C(=O)NCC2CCCN2S(=O)(=O)c2cccs2)c1 (stereo unspecified)
i | 0.98 | CCOc1ccc(NC(=O)CCC(=O)NNC(=O)COc2ccc(C)cc2Br)cc1
i | 0.06 | Cc1ccc2nc(N(CCCN(C)C)C(=O)c3ccc(S(=O)(=O)N(C)C)cc3)sc2c1
i | -0.06 | O=C(N/N=C/c1c(O)n(Cc2ccco2)c(=O)[nH]c1=O)c1ccccc1
i | 3.4 | Cc1ccc(S(=O)(=O)c2cc3c(=O)n4ccccc4nc3n(Cc3ccco3)c2=N)cc1
i | -0.06 | CCCOc1ccc(C(CC(=O)O)NC(=O)c2ccc3c(c2)OCO3)cc1 (stereo unspecified)
i | 0.05 | Cc1cccc(-n2ncc3c(N(C)Cc4ccccc4)ncnc32)c1
i | 2.9 | Cc1ccc(-c2cnc(SCCNC(=O)c3ccco3)[nH]2)cc1
i | 0.7 | CCCCN(C)c1ccc([N+](=O)[O-])cc1

Shown with each value named: entries from further up
O=c1cnc2cc([N+](=O)[O-])ccc2[nH]1
  KCNQ2 inh: i; KCNQ2 inh baseline: -0.26

CCOC(=O)CN(C)S(=O)(=O)c1ccc(-c2cc(C(=O)OC)sc2C(F)(F)F)cc1
  KCNQ2 inh: i; KCNQ2 inh baseline: 0.91

COC(=O)NNC(=O)COc1ccc(Cl)cc1
  KCNQ2 inh: i; KCNQ2 inh baseline: -0.45

Compound profiles, from the list above. Values in the order: KCNQ2 inh | KCNQ2 inh baseline
`CCOc1ccc(NC(=O)CCC(=O)NNC(=O)COc2ccc(C)cc2Br)cc1` in the list: i | 0.98
`Cc1ccc(-c2cnc(SCCNC(=O)c3ccco3)[nH]2)cc1` in the list: i | 2.9

New compounds follow:
KCNQ2 inh | KCNQ2 inh baseline | SMILES
i | 0.13 | COCc1c(C(=O)N/N=C(/C)c2cccs2)nnn1-c1nonc1N
i | -0.29 | Cc1ccc(N2C(=O)C3CC(c4ccccc4)=C4C5C=CC(C6C(=O)N(c7ccc(C)cc7)C(=O)C56)C4C3C2=O)cc1 (stereo unspecified)
i | -0.47 | CCOC(=O)/C=C(\C)Nc1cc(C)nn1-c1ccccc1
i | -0.2 | Cn1c(Cc2cccc3ccccc23)nnc1SCC(=O)N1CCN(c2cccc(Cl)c2)CC1
i | -2 | COc1ccc(CCC(=O)NCCOc2ccc(Cl)cc2)cc1
i | -0.36 | COc1cccc(-c2cc(C(F)(F)F)nc(N3CCCCC3)n2)c1
i | 1.2 | COc1ccc(C(F)(F)F)cc1N/C=C/c1nnnn1-c1ccc(C)cc1
i | 1.7 | COCCNC(=O)c1cc(-c2cccs2)on1
i | 0.45 | CCOC(=O)N1CCN(C(=O)c2cc(-c3ccc(OCC)cc3)nc3ccccc23)CC1
i | -0.54 | Cc1cc(C=C2C(=O)c3ccccc3C2=O)c(C)n1-c1ccccc1
i | -0.48 | O=C(CSc1nc2ccccc2o1)N1CCN(S(=O)(=O)c2ccc3ccccc3c2)CC1
i | -2.2 | Cc1cccc(N(CC(=O)Nc2cccnc2)S(C)(=O)=O)c1
i | 0.35 | CCOC(=O)c1c(C)[nH]c(C(=O)OCC(=O)N(CC(C)C)c2c(N)n(Cc3ccccc3)c(=O)[nH]c2=O)c1C
i | 2.3 | Cc1cc(C)cc(C(=O)Nc2ccc(NC(=O)c3cccs3)cc2)c1
i | 0.51 | COc1ccc(S(=O)(=O)N(CC(=O)NCc2ccccn2)c2ccc(Cl)cc2)cc1
i | 3.8 | CCOCCn1c(=NC(=O)c2cc(Cl)sc2Cl)sc2cc(S(N)(=O)=O)ccc21
i | 0.14 | CC(C)C[C@H](NC(=O)[C@@H]1Cc2c([nH]c3ccccc23)C2c3ccccc3C(=O)N21)C(=O)NCC1CCCO1 (stereo partly specified)
i | 0.35 | O=C(NC1CCCC1)c1ccc(CS(=O)(=O)Cc2ccccc2F)o1
i | 0.84 | CC(C)(C)C(=O)N(Cc1nc2ccccc2c(=O)[nH]1)Cc1cccs1
i | -1 | COc1ccccc1NC(=O)CC(=O)CSc1nnc(-c2ccc(C)cc2)n1-c1ccccc1
i | 1.1 | CCN1CCN(c2cc(C)c3cc(NC(=O)c4ccc5c(c4)OCO5)ccc3n2)CC1
i | 0.95 | O=C(CCc1ccccc1)Nc1ccc(NS(=O)(=O)c2ccccc2)cc1
i | -1 | COCCCNC(=O)CN(c1cc(Cl)ccc1OC)S(C)(=O)=O
i | 2.2 | O=S(=O)(c1ccc(Cl)cc1)n1cccn1
i | 1.3 | CCOC(=O)c1c(C)n(C)c2ccc(O)c(CN3CCCCC3)c12
i | 1.7 | Cc1cc(OCCCn2cnc3ccccc3c2=O)ccc1[N+](=O)[O-]
i | 0.11 | O=C(CCn1c(=O)sc2ccccc21)NCCCn1ccnc1
i | -0.22 | COc1cccc(CNC(=O)CN(C)S(=O)(=O)c2ccc3c(c2)c(=O)n(C)c(=O)n3C)c1
i | -0.02 | O=C(O)C(Nc1nc(C(F)(F)F)nc2ccccc12)c1ccccc1 (stereo unspecified)
i | -0.51 | CCCNc1c(NS(=O)(=O)c2cccs2)c(=O)oc2ccccc12
i | -0.02 | Cc1cc(C(=O)OCC(=O)N(CC(C)C)c2c(N)n(Cc3ccccc3)c(=O)[nH]c2=O)c(C)o1
i | -1.6 | CC(C)(C)c1ccc(C(=O)N2CCC(C(=O)NCCC3=CCCCC3)CC2)cc1

Arranged by molar mass (falling): five of the compounds above.
KCNQ2 inh | KCNQ2 inh baseline | SMILES
i | 0.45 | CCOC(=O)N1CCN(C(=O)c2cc(-c3ccc(OCC)cc3)nc3ccccc23)CC1
i | 0.14 | Cc1ccc(NC2CC(=O)N(c3ccc(N4CCCCC4)cc3)C2=O)cc1 (stereo unspecified)
i | 0.01 | COc1cc(/C=C(/C#N)C(=O)NCc2ccccc2)cc(OC)c1OC
i | 1.7 | COCCNC(=O)c1cc(-c2cccs2)on1
i | -0.31 | CC1=NNC(=O)C1Cc1ccc(F)cc1 (stereo unspecified)

Going on with the list:
KCNQ2 inh | KCNQ2 inh baseline | SMILES
i | -0.03 | Cc1cc(=O)oc2cc(OCC3CC(c4ccccc4)=NO3)ccc12 (stereo unspecified)
i | 1.8 | COC(=O)C1C2C=CC(C3CC23)C1C(=O)OCC(=O)c1ccc(OC)cc1 (stereo unspecified)
i | 0.06 | Cc1c(C(=O)OCC(=O)N2c3ccccc3CC2C)oc2ccccc12 (stereo unspecified)
i | -0.32 | C=C(C)CSc1nnc2n(N)c(=O)c3ccccc3n12
i | -0.66 | CCOc1ccc(Nc2cc(=O)[nH]c(=O)[nH]2)cc1
i | 0.47 | CCOC(=O)c1sc2nc(CSc3ccccc3Cl)[nH]c(=O)c2c1C
i | -2.4 | O=C(NCc1nc2ccccc2[nH]1)C1=C[C@@H](C2CCCCC2)C[C@@H](OCc2ccc(CO)cc2)O1
i | -0.54 | Cc1ccc(C)c(OC2=NS(=O)(=O)c3ccccc32)c1
i | 0.07 | COc1cc(Cl)cc(C(c2c(C(=O)O)[nH]c3ccccc23)c2c(C(=O)O)[nH]c3ccccc23)c1O
i | -0.4 | COc1ccnc(N2CCN(c3ccccc3)CC2)c1C#N
i | -0.59 | Nn1c(Cc2cccc3ccccc23)nnc1SCc1ccccc1Cl
i | 0.68 | CCc1cc(=O)[nH]c(SCC(=O)N2CCCC2)n1
i | -0.01 | N#CC1(Cc2ccc(Cl)cc2)c2ccccc2C=CN1C(=O)c1ccccc1 (stereo unspecified)
i | -1.5 | COc1ccc([C@H]2[C@H](C(=O)C(C)(C)C)N3N=Cc4ccccc4C3C23C(=O)OC(C)(C)OC3=O)cc1 (stereo partly specified)
i | 0.75 | CCc1c(C)nc(N)nc1Cl
i | 0.03 | CSc1ccc(CN(C)CC(=O)Nc2c(F)cccc2F)cc1
i | 0.82 | COc1ccccc1NC(=O)N1CCCC1C(=O)NCc1ccc(F)cc1 (stereo unspecified)
i | -0.52 | C/C(=N\NC(=S)NCc1ccccc1)c1ccc2ccccc2c1OC(F)F
i | -1 | CC(=O)c1cc(CN2CCN(C3CCCCC3)C(CCO)C2)cs1 (stereo unspecified)
i | -0.84 | S=C1NCN(Cc2ccco2)CN1
i | -0.72 | O=C(CS(=O)(=O)c1ccccc1)Nc1nc(-c2ccc(F)cc2)cs1
-9.4* | 1.1* | CC(C)(C)c1ccc(CN(Cc2ccccc2)C(c2ccccn2)c2nnnn2C(C)(C)C)cc1 (stereo unspecified)
i | 2.3 | Cc1ccc(C2(C)NC(=O)N(CCOc3ccccc3)C2=O)cc1 (stereo unspecified)
i | 1.5 | CCSc1c(C(=O)NC)ccc2c1C(=O)c1ccccc1C2=O
i | 0.73 | O=C(NCCc1ccccc1)c1nc(-c2cccs2)no1
i | -0.5 | COc1cc(C(=O)NC(=S)Nc2ccc(Cl)cn2)cc(OC)c1OC
i | -2.2 | Cc1ccc(N2CC(C(=O)OCc3ccccc3F)CC2=O)cc1 (stereo unspecified)
i | -2.4 | CC(C)n1cc(CN2CCCC(C(=O)Nc3cccc(-c4cc5ccccc5[nH]4)c3)C2)cn1 (stereo unspecified)
i | 0.22 | CC(C)(O)c1[nH]c2cc(F)ccc2c1C(C)(C)O
i | -1.9 | c1ccc(-c2nnc(SCc3cn4ccsc4n3)o2)cc1
i | -0.2 | CCOC(=O)c1c(CCl)nc2ccccc2c1C
i | 2.5 | Cn1c(=O)c2c(nc(CN3CCc4ccccc4C3)n2Cc2cccc(Cl)c2)n(C)c1=O
i | -0.34 | CCOc1cc(-c2noc(CCC(=O)NCCc3ccccc3)n2)ccc1OC
i | 0.12 | CCc1ccc(NC(=O)c2cnc(SC)nc2C)cc1
i | -3.2 | Fc1ccc(CNCc2ccco2)cc1
i | 0.02 | CCOc1cc(/C=C2\SC(=O)N(CC(=O)Nc3ccccc3F)C2=O)cc([N+](=O)[O-])c1O
i | 0.82 | C=CCN1CCN(C(=O)c2cc3c(s2)CCCC3)CC1
i | 1.6 | COc1ccc(CNC(=O)c2nnn(Cc3ccc(OC)cc3)c2N)cc1
i | 0.13 | CC(C)(C)C1CCC(=NNC(=S)Nc2cccnc2)CC1 (stereo unspecified)
i | -2.1 | CCCCN(CC)C(=O)c1cc2c(=O)n3cccc(C)c3nc2s1

Two entries drawn at random from those above:
KCNQ2 inh | KCNQ2 inh baseline | SMILES
i | 1.6 | COc1ccc(CNC(=O)c2nnn(Cc3ccc(OC)cc3)c2N)cc1
i | 0.13 | CC(C)(C)C1CCC(=NNC(=S)Nc2cccnc2)CC1 (stereo unspecified)

(more compounds)
KCNQ2 inh | KCNQ2 inh baseline | SMILES
i | -0.17 | CCOC(=O)Nc1ccc(C(=O)NCC2CCCO2)cc1 (stereo unspecified)
i | -0.03 | Cc1ccnc2nc(C(=O)Nc3nnc(-c4ccccc4)o3)nn12
i | 1.3 | COc1ccc(-c2cc(C(=O)NCCN3CCOCC3)c3ccccc3n2)cc1
i | 1.6 | CN(Cc1ccccc1)C(=O)CN(C1CCCCC1)S(C)(=O)=O
i | 1.4 | Cc1cc(Cl)ccc1OCC(=O)Nc1nc(-c2cccs2)cs1
i | 0.1 | O=C(N/N=C/c1cc(Br)cc([N+](=O)[O-])c1O)c1ccc(NC(=O)c2ccc(F)cc2)cc1
i | -0.04 | CSc1ccccc1NS(=O)(=O)c1ccccc1
i | 0.67 | COc1ccc(C)cc1NC(=O)c1nn(C)c(C(=O)Nc2cc(C)ccc2OC)c1[N+](=O)[O-]
i | -0.53 | O=C(c1ccccc1Cl)N(Cc1ccc(Cl)c(Cl)c1)N1C(=O)CCCC1=O
i | 0.31 | COc1ccc(C)cc1NC(=O)COCC(=O)O
i | 0.96 | CC1CC2(C)Oc3ccccc3C3OCC1(CO)C(C)C32 (stereo unspecified)
i | -1.9 | Cc1ccc(NC(=O)CCn2c(=O)c3cccn3c3ccccc32)c(C)c1
i | 0.38 | O=C(Nc1ccc(S(=O)(=O)Nc2ncccn2)cc1)C(F)(F)F
i | -0.33 | CC(=O)Nc1ccc(NC(=O)CSc2ncnc3c2cnn3Cc2ccccc2)cc1
